# Screening results from PubChem BioAssay.
# PINK1 expr mod: modulators of PINK1 expression | hit rate 0.2% among 410,000 | AID 624263 | Potency, µM (series often up to 76.6 µM), for the others: top-dose activation (PINK1 increase), most hits filed as activators | PINK1 immunofluorescence, high-content cytometry, 24 h; active = well fitted activation curve with a large enough effect; inconclusive = small, poorly fitted or top-dose-only effect; inactive = flat fitted curve, though single readings scatter; cell line not stated here;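 also: potency is read from the fitted curve at half-maximal effect; % of control where 0% means no effect; nearly all actives have a fitted effect of over 65% in size; a mitochondrial uncoupler was the plate control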
#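 A stable cell line was treated with compounds at 5 concentrations for 24 hours, with CCCP as control. PINK1 levels and mitochondrial localization were measured by immunofluorescence with mitochondrial, cell and nuclear markers after fixation, read by laser-scanning cytometry.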
# Six1-Eya2 blk: blocks human Six1 binding to Eya2. AlphaScreen GST-Six1/His-Eya2 binding, biochemical; active compounds read low; control for the full effect not named in the record. activity change, % (test concentration not listed). hit rate 0.56% among 360,000. AID 651725; in the data active = activity change below about -65%; inconclusive = about -30% to -65%; inactive = above about -30%; also: % is scaled to controls: 0 for no effect and ±100 for the full control effect
#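 Compounds are tested against tagged Six1 and Eya2 proteins bridged by glutathione donor and nickel acceptor beads; after a one-hour incubation at 37 °C without light, AlphaScreen emission is recorded.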
# D2 ag: activates the human D2 dopamine receptor. DiscoveRx PathHunter D2 beta-arrestin, luminescence, 90 min; 100% = 57 uM dopamine signal. activation, % (concentration not given with the values). hit rate 0.084% among 360,000. AID 624465; in the data active = activation above about 40%; inconclusive = about 15% to 40%; inactive = below about 15%; also: compound concentration not given in the record; the text of the record calls up to 30% inactive
# Target sequence (P14416 whole entry, looked up): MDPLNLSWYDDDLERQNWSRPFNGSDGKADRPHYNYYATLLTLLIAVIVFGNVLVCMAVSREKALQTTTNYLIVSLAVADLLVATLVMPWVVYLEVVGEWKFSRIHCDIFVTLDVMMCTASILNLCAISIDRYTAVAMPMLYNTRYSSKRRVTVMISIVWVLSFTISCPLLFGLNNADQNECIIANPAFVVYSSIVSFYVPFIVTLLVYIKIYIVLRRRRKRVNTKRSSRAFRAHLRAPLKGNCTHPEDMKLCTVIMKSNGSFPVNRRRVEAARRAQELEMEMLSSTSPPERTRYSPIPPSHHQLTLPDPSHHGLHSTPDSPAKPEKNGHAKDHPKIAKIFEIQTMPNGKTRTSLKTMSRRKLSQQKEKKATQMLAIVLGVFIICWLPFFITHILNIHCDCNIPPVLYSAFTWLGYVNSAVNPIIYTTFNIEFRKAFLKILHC
#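 DiscoveRx PathHunter D2 beta-arrestin cells (2,100/well) attached overnight, then compound-stimulated 90 min at 37 C in HBSS/10 mM HEPES/0.1% Tween-20 buffer; beta-galactosidase complementation read by luminescence after 1 h at ambient temperature. Dopamine 57 uM final (EC100) as control.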
# TRPML1 agonist: human mucolipin-1 channel agonism | TRPML1-expressing cells, Ca2+ dye fluorescence, FDSS; host cell line not named in the record; reference of the full effect not given here | Q9GZU1 | activation, % (test concentration not listed) | hit rate 0.12% among 410,000; in the data active = activation above about 50%; inconclusive = about 30% to 50%; inactive = below about 30%; also: 0% is about no effect; the text of the record puts the active cut at 80%
# Target sequence (Q9GZU1 whole entry, looked up): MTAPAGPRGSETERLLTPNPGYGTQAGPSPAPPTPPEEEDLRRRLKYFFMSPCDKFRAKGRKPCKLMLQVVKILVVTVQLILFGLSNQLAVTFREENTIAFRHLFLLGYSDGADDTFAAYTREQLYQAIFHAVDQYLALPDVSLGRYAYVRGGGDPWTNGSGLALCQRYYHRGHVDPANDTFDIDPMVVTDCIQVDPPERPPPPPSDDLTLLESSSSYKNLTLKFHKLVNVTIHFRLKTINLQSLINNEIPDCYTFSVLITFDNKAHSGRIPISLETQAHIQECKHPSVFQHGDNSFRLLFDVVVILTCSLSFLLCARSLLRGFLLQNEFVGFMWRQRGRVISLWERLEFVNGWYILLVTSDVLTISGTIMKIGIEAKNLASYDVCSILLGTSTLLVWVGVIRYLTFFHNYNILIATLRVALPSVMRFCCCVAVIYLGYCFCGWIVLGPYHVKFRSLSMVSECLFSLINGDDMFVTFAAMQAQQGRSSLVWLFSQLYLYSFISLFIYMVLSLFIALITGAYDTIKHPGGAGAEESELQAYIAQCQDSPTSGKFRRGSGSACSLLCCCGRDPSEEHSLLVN
#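 Cells: TRPML1-DL, 1X Tet inducer, ~16 h at 37 degrees C/5% CO2. Dye: ABD Ca8 no-wash + quencher, 45-90 min RT. Read: 10 s baseline, compound add, 110 s agonist phase; 54-4 EC80 (4uM final), 110 s antagonist phase.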
# TRPML1 inh: blocks the human TRPML1 channel; Q9GZU1; TRPML1-inducible cells, Ca2+ dye fluorescence, FDSS; active compounds read low; inhibition of EC80 agonist-evoked calcium signal; activity change, negative = inhibition, % (no concentration beside the values); hit rate 0.02% among 390,000; in the data active means activity change below about -50%; inconclusive means about -30% to -50%; inactive means above about -30%;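 also: stimulus is agonist 54-4 at its EC80 concentration; % is scaled to controls: 0 for no effect and ±100 for the full control effect; compound concentration not given in the record; the text of the record puts the active cut at -80%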
#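 Tet-induced TRPML1-DL cells loaded with Ca8 no-wash calcium dye were read kinetically on FDSS. Compound addition was followed by EC80 agonist 54-4 (4 uM final); inhibition was read over 110 s.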
# D2 potentiator: positive allosteric modulators of human D2 dopamine receptor; P14416; DiscoveRx D2 beta-arrestin cells, luminescence, 90 min; 100% = 57 uM dopamine signal; potentiation, % (test concentration not listed); hit rate 0.23% among 360,000; active = potentiation of 50% or more; inconclusive = 30% to 50%; inactive = 30% or less;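 also: compound concentration not given in the record; tested on top of an EC20 dose of dopamine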
#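 PathHunter D2 cells, attached overnight at 37 deg C, received compound in DMSO plus dopamine at EC20 (50 nM final) for 90 min at 37 deg C. Beta-arrestin recruitment was read as luminescence after 1 h with detection reagent at ambient temperature.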
# Numbers without * were called inactive; ? = inconclusive; nt = not tested or not shown; [ ] = another dose, or the depositor's remark.
canonical_smiles	PINK1 expr mod	Six1-Eya2 blk	D2 ag	TRPML1 agonist	TRPML1 inh	D2 potentiator
C=C(C)c1cccc(C(C)(C)NC(=O)Nc2cccnc2)c1	3.2%	-2.0	-2.3	-0.3	-9.4	-2.8
O=C(O)C1(Nc2ccc(Br)cc2)CCCC1	-5.1%	9.8	-4.6	0.6	24.5	3.9
O=C(Cc1ccccc1)NS(=O)(=O)c1ccc(N=NN2CCOCC2)cc1	-0.5%	-5.4	-1.4	1.3	9.0	-3.9
COc1cccc(CNC(=O)CCS(=O)(=O)c2ccc3c(c2)NC(=O)C(C)S3)c1 (stereo not given)	0.3%	-1.7	-2.2	-0.3	-15.6	0.1
O=S(=O)(NC1CCCC1)c1ccc(S(=O)(=O)NC2CCCC2)cc1	-1.4%[38.3 µM]	3.7	1.1	8.0	-12.3	-17.9
O=C(N/N=C/c1ccncc1)c1ccccn1	-1.5%	-9.5	1.6	2.9	-17.0	2.6
O=C(O)CN1C(c2ccccc2)=Nc2ccc(Br)cc2C1c1ccccc1 (stereo not given)	-0.4%	4.2	0.1	-0.5	30.8	-18.4
C/C(N)=C(/C#N)C(=O)CSc1cc(C)c2ccccc2n1	0.2%	8.3	0.1	-0.3	-1.2	-7.6
Nn1c(SCC(=O)N2CCCc3ccccc32)nnc1-c1ccc(Cl)cc1	-1.3%	-0.7	-1.7	0.6	4.5	-4.2
CCCNC(=S)N1CC2(C)CN(C(=O)C(=O)OC)CC(C)(C1)C2=O	-0.1%	5.7	-2.5	0.3	-3.0	-9.1
Cc1nc(-c2cccs2)sc1C(=O)NN	9.6%	-10.5	8.7	-0.5	41.7	0.2
CC(=O)N1CCc2c(sc(NC(=O)CSc3ccc(F)cc3)c2-c2nc3ccccc3s2)C1	3.0%	nt	nt	0.0	-6.4	nt
COCCn1c(SCC(=O)N(C)C2CCS(=O)(=O)C2)nc2ccccc2c1=O (stereo not given)	0.9%	-12.9	-0.4	-0.4	18.1	-5.3
CCCS(=O)(=O)N1CC(=O)N(c2cccc(Cl)c2C)C(C)(C(=O)NC2CCCC2)C1 (stereo not given)	-1.0%	nt	nt	0.5	-14.3	nt
CC1(C)C(=O)Nc2ccccc2N1C(=O)COc1ccccc1C#N	0.0%	0.1	-0.1	-0.7	5.5	-2.8
O=C(c1cccc(Cl)c1)C1CCCN(Cc2ccc(N3CCNC3=O)cc2)C1 (stereo not given)	-0.2%	-4.1	-2.0	0.6	-2.7	-12.4
Clc1ccc(C(c2ccccc2Cl)C(Cl)Cl)cc1 (stereo not given)	5.8%	10.2	-4.4	1.2	-21.1	-1.0
CN(C)C(=O)/C(C#N)=C\c1cc(Br)c(Sc2ccc(Cl)cc2)o1	4.8%	2.5	-2.8	0.5	41.2	-19.0
Cc1cc(C)cc(Nc2nc3cc(Cl)c(Cl)cc3nc2-n2nc(C)cc2C)c1	1.6%	nt	nt	0.0	6.7	nt
FC(F)(F)c1cc(Cl)c2nc(-c3ccccc3)c(Cc3ccccc3)n2c1	2.3%	8.4	-4.0	0.5	nt	-1.4
Cc1ccc(Sc2ncccc2C(=O)NC2CCCCCC2)cc1C	4.7%	-8.8	-1.6	0.2	3.4	-19.7
Clc1ccc(-c2noc3ncnc(N4CCCCC4)c23)cc1	0.5%	nt	nt	0.3	8.8	nt
COc1ccc(S(=O)(=O)c2cnc3cc(OC)c(OC)cc3c2N2CCCC(C)C2)cc1 (stereo not given)	-1.1%	nt	nt	-0.2	1.5	nt
CCN(CC)S(=O)(=O)c1ccc(NC(=O)c2ccc(N(C)S(C)(=O)=O)cc2)cc1	9.6%	-19.9	1.7	0.4	0.8	-2.1
Cc1ccccc1NC(=O)COC(=O)COc1ccc2ccc(=O)oc2c1	-0.8%	-16.6	-4.3	0.0	-19.8	-16.0
CSCCC(NC(=O)c1ccccc1Cl)C(=O)NCCOc1ccccc1 (stereo not given)	-0.6%	-2.2	-5.1	0.7	-1.0	-8.2
CCc1ccc(NC(=O)c2ccccc2Br)cc1	-0.3%	2.5	6.2	2.3	5.3	-19.3
Cc1cc(C)c(S(=O)(=O)Nc2ccc(O)cc2)c(C)c1	0.5%	1.0	0.9	0.0	-4.4	9.2
O=C(O)CN1C(=O)/C(=C/c2cccc(Cl)c2)Oc2ccccc21	1.0%	-6.2	-4.7	1.3	-10.8	-8.6
CC(=O)Nc1ccc(C(=O)NNC(=O)C2C3CCCCC32)cc1 (stereo not given)	-0.6%	4.1	0.3	0.4	-13.4	-5.8

# Filtered by structure, those above with a thiophene ring, fused or not.
canonical_smiles	PINK1 expr mod	Six1-Eya2 blk	D2 ag	TRPML1 agonist	TRPML1 inh	D2 potentiator
Cc1nc(-c2cccs2)sc1C(=O)NN	9.6%	-10.5	8.7	-0.5	41.7	0.2
CC(=O)N1CCc2c(sc(NC(=O)CSc3ccc(F)cc3)c2-c2nc3ccccc3s2)C1	3.0%	nt	nt	0.0	-6.4	nt

# Structural class, the entries above with an aryl methoxy group.
canonical_smiles	PINK1 expr mod	Six1-Eya2 blk	D2 ag	TRPML1 agonist	TRPML1 inh	D2 potentiator
COc1cccc(CNC(=O)CCS(=O)(=O)c2ccc3c(c2)NC(=O)C(C)S3)c1 (stereo not given)	0.3%	-1.7	-2.2	-0.3	-15.6	0.1
COc1ccc(S(=O)(=O)c2cnc3cc(OC)c(OC)cc3c2N2CCCC(C)C2)cc1 (stereo not given)	-1.1%	nt	nt	-0.2	1.5	nt

# New compounds follow
canonical_smiles	PINK1 expr mod	Six1-Eya2 blk	D2 ag	TRPML1 agonist	TRPML1 inh	D2 potentiator
COc1cccc(N2CCN(c3nc4ccc(C(=O)c5ccccc5)cc4n4c(C)nnc34)CC2)c1	2.4%	nt	nt	0.5	3.6	nt
O=C(NCCCN1CCOCC1)c1cc(S(=O)(=O)N2CCOCC2)c(Cl)cc1Cl	-3.3%	7.1	3.9	0.1	29.0	-1.9
CC(C)CC1(C(=O)NCCc2c[nH]c3ccccc23)C=CCN1C(=O)c1ccccc1 (stereo not given)	1.0%	-1.0	-1.8	-0.7	-3.0	-10.9
COc1cccc(CNC(=O)c2cccc(NC(=O)CC3SC(N4CCCCC4)=NC3=O)c2)c1 (stereo not given)	0.8%	-1.9	2.9	0.8	?	-1.5
COc1ccc(CN2C(=O)C(C)Nc3ncnc(N4CCOCC4)c32)cc1 (stereo not given)	3.7%	7.5	-1.2	-0.2	2.3	-1.0
CCCCOc1ccc(CNC(=O)NS(=O)(=O)c2ccc(OCC(C)C)cc2)cc1	-2.3%	-1.0	-2.1	0.8	-2.3	-8.2
Cc1nc2ccc([N+](=O)[O-])cc2s1	1.3%	0.8	-2.9	-0.4	0.3	-3.3
CC1CC(=O)N(CC(=O)Nc2ccc3c(c2)OCCO3)c2ccccc2S1 (stereo not given)	-4.0%[38.3 µM]	-2.7	-1.5	0.5	1.4	-9.2
O=C(NCc1ccco1)c1cccc(S(=O)(=O)N2CCN(Cc3ccccc3)CC2)c1	-1.7%	-8.0	-1.5	1.7	3.3	-29.7
COc1ccc(NC(=O)c2sc(=O)n(Cc3cccc(C(F)(F)F)c3)c2C)cc1OC	2.4%	-27.5	8.0	-0.6	nt	0.7
O=C(NCC1CCCO1)c1cc2c(s1)CCCC2 (stereo not given)	-1.0%	4.2	-6.9	-0.1	-3.6	-4.2
Cc1c(O)c2cccnc2[nH]c1=O	-1.5%	8.0	-0.1	0.8	1.2	1.1
CCOc1ccc(NC(=O)c2nnn(CC(=O)Nc3ccccc3OCC)c2N)cc1	10.7%	0.8	-3.1	1.8	11.3	-11.9
CCOC(=O)CCC(NC(=O)c1cncc(O)c1)C(=O)OCC (stereo not given)	2.7%	9.4	-0.7	-0.6	1.7	-12.2
CCOC(=O)c1sc(NC(=O)C(OC(C)=O)c2ccccc2)nc1C (stereo not given)	1.9%	4.5	-0.5	1.3	5.0	-8.4
CCc1ccc(-n2c(=O)c3c(C)c(C(=O)N(C)C)sc3n(CC(=O)NCC3CCCO3)c2=O)cc1 (stereo not given)	2.7%	-3.1	1.9	-0.5	-12.6	-5.4
Cc1ccccc1N(C(=O)c1cccs1)c1nc2ccccc2s1	0.6%	0.4	1.7	3.5	6.1	-2.2
NC(=O)c1nsc(C(=O)N(Cc2cccnc2)C(C(=O)NCc2ccc(F)cc2)c2ccc(F)cc2)c1N (stereo not given)	-0.2%	8.4	2.1	1.3	-5.6	-5.4
FC(F)(F)c1cccc(N2CCN(Cc3nnc(-c4ccccc4)o3)CC2)c1	1.2%	nt	nt	3.4	1.9	nt
CN(C)C(=S)SCCn1c(N)nc(N(C)C)nc1=O	4.2%	-2.0	2.3	0.5	-15.1	1.3
Cc1cc(C)cc(N(C)S(=O)(=O)c2nnc(NC(=O)COc3ccc(C)c(C)c3)s2)c1	-0.8%	nt	nt	2.3	-12.3	nt
CCCCOc1ccc(C(O)C(CN2CCCCC2)c2ccccc2)cc1 (stereo not given)	17.7%	1.7	-3.5	-0.7	-13.3	1.7
CCCOc1ccccc1N1C(=O)CC(N(O)c2ccccc2)C1=O (stereo not given)	-0.1%	-1.7	0.7	0.3	-18.1	8.5
CCN(CC)CCn1c(=S)[nH]c2ccc(Br)cc2c1=O	1.5%	-1.7	-5.6	-0.4	20.3	-29.4
Cc1ccc(Cl)cc1-c1cc(C(=O)NCc2cccc(Cl)c2)[nH]n1	?	-0.5	2.5	-0.1	nt	-9.2
COc1ccc2c(C)cc(SCC(=O)Nc3nsc(-c4ccc(C(C)(C)C)cc4)n3)nc2c1	-0.3%	nt	nt	0.8	7.4	nt
Clc1ccc(NCc2nc3ccccc3n2CCOc2ccccc2)cc1	7.3%	nt	nt	3.4	44.4	nt
CC1CCC(O)(C(C(=O)O)c2ccccc2)CC1 (stereo not given)	3.0%	7.4	-1.6	-0.1	5.3	-2.8
NC(=O)C1CC(O)CN1c1nc(CN2CCOCC2)nc2scc(-c3ccccc3)c12 (stereo not given)	-2.8%	0.4	-3.3	-0.7	-1.5	-2.1
COc1ccc(C(=O)OCC(=O)NC2CCCC2)cc1OC	3.7%	-15.1	5.0	-0.8	-11.0	1.2

# (list continues)
canonical_smiles	PINK1 expr mod	Six1-Eya2 blk	D2 ag	TRPML1 agonist	TRPML1 inh	D2 potentiator
COc1cccc(-c2nc(CS(=O)CC(=O)NCc3ccccc3)c(C)o2)c1 (stereo not given)	-0.5%	-3.2	3.8	-0.3	-5.1	-4.4
COc1ccc(/C=C2\SC(c3ccc(C)cc3)=NC2=O)cc1OC	9.3%[38.3 µM]	-9.9	-6.6	5.9	4.0	-11.3
CCC(=O)NC(=S)NNC(=O)c1ccc([N+](=O)[O-])cc1	1.3%	-0.4	-2.5	0.0	3.1	2.7
CCCCN(CC(=O)Nc1c(C)cccc1CC)C(=O)SCC	0.1%	3.4	-0.5	-0.5	-0.1	-15.0
CC(C)(C)C1CCC(OC(=O)CN2CCOCC2)CC1 (stereo not given)	-0.1%	-1.6	-3.6	0.2	14.3	-16.1
CCOc1ccc(OCc2ccc(C(=O)NCc3cccnc3)o2)cc1	1.3%	2.2	2.4	-0.8	-5.5	-4.4

# Outcome played no part in choosing rows; any-hit rate near 1%.
